# Bioassay records deposited in PubChem BioAssay by The Scripps Research Institute Molecular Screening Center.
# OX1R antag-1: antagonists of human orexin 1 receptor (OX1R); OX1R-expressing cells, FRET antagonist read-out; inhibition, % at 6.6 µM; 330,000 compounds, 1.8% hits; AID 485270, 2010; Orexin/Hypocretin receptor type 1 (Homo sapiens), O43613; in the data active = inhibition mostly above about 38%, no sharp cut-off; inactive = mostly below about 40%;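 also: 0% = agonist challenge alone and 100% = reference antagonist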
# Target sequence (O43613 whole entry, looked up): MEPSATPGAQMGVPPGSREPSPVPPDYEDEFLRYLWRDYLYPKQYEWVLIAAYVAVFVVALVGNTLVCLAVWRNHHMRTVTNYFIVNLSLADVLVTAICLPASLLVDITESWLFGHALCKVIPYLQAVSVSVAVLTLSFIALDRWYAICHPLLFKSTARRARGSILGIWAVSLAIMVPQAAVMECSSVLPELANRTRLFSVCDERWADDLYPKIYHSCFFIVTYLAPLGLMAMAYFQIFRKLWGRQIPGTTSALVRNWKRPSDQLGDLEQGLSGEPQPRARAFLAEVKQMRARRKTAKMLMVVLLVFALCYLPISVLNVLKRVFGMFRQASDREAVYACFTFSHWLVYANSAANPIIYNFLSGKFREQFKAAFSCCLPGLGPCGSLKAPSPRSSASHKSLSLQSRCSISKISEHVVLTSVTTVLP
# OX1R antag-2: OX1R (HCRTR1) antagonists, primary screen, fluorescence, CHO/OX1R cells, Fluo-8 calcium, orexin A. Orexin/Hypocretin receptor type 1 (Homo sapiens), O43613. Fluo-8 calcium fluorescence. inhibition, % at 5 µM. 330,000 compounds, 0.43% hits. AID 434989, 2010;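 active = inhibition above its plate's threshold, mean inhibition of all tested compounds on the plate plus 3 SD, cut at about 37% in these data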;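 also: 0% = orexin A challenge wells and 100% = SB-334867-A antagonist wells; not every result past the cut was called active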
# An asterisk follows results filed as active; & = joins results of further samples. An excerpt, and most or all hits are left out here.
SMILES,OX1R antag-1,OX1R antag-2
Nc1ccnn1C1CCNCC1,3,-6
Cc1cc(=O)oc2cc(OCC(=O)N3CCN(Cc4ccccc4)CC3)ccc12,7,-25
O=c1[nH]c(=S)n(-c2ccc(Cl)cc2)c(O)c1/C=N/N1CCOCC1,4,-3
CN(C)CCN(CC1CCCN(Cc2ccccc2F)C1)C(=O)Cc1ccccc1F (stereo unspecified),17,-15
C=CCN1CCC2(C)c3cc(O)ccc3CC1C2C (stereo unspecified),2,-7
CN(C)S(=O)(=O)c1cccc(C(=O)N2CCC(C(=O)O)(c3ccccc3)CC2)c1,17,3
O=C(Nc1ccc2ccccc2c1)c1nn(C23CC4CC(CC(C4)C2)C3)cc1Br,16,-18
COc1ccc(N2C(=O)NC(=O)C(CCc3ccncc3)(CCc3ccncc3)C2=O)cc1,8,-16
CN(C)c1cc(N)c2c(n1)CCC2 (tested in a mixture with another compound),9,-21
COc1ccc(C2=NCC(=S)Nc3ccc(Cl)cc32)cc1OC,4,-12
O=C(CN1C2CCC1CC(O)(c1cccnc1)C2)Nc1ccc2c(c1)OCO2 (stereo unspecified),6,-3
CCCCn1c(O)c(C(C)=Nc2c(C)n(C)n(-c3ccccc3)c2=O)c(=O)[nH]c1=O,20,-5
Cc1cc(C(=O)CS(=O)(=O)c2ccc(F)cc2)cc(C)c1OC(=O)N(C)C,17,-13
COc1ccccc1Sc1ccccc1CC(C)N (stereo unspecified),17,-14
Cc1cc(C)c(-n2c(O)c(/C=N/NC(=O)c3ccncc3)c(=O)[nH]c2=O)c(C)c1,38,-17
CC1(O)C[C@]2(C)N(O)C3CCCC[C@@H]3N2O1 (stereo partly specified),11,-14
COCc1cc(OC(=O)N(C)C)nc(-c2ccc(C)c(Cl)c2)n1,7,-14
Cc1cccc(OP(=O)(Oc2cccc(C)c2)OC(c2ccccc2)C(F)(F)F)c1 (stereo unspecified),11,-26
COC(=O)c1cncn1C(C)c1ccccc1 (stereo unspecified),12,-7
CC/C(=N\NC(=O)c1ccccc1O)c1c(O)n(Cc2ccccc2)c(=O)[nH]c1=O,7,-6
c1ccc(C2CC3CC(c4ccco4)N2O3)cc1 (stereo unspecified),12,-22
COc1ccc(OC)c(-n2c(O)c(C=Nc3c(C)n(C)n(-c4ccccc4)c3=O)c(=O)[nH]c2=O)c1,5,-7
COc1ccc2c(c1)/C(=C/c1cnc[nH]1)C(=O)N2,32,-32
O=C(O)Cn1cc(C=C2C(=O)NC(=O)NC2=O)c2ccccc21,6,9
COC(=O)C(O)(c1ccc(N(C)S(=O)(=O)c2ccccc2)cc1)C(F)(F)F (stereo unspecified),32,0
O=C(c1cc(F)ccc1F)C1CCCN(CCCc2ccccc2)C1 (stereo unspecified),17,-35
O=[N+]([O-])c1cccc(CN2CCN(Cc3ccc(Cl)cc3)CC2)c1,12,-19
CCC(=O)N1CC(=O)Nc2ccc(F)cc2C1c1ccccc1 (stereo unspecified),13,-7
O=C(COC(=O)c1cccc(O)c1)Nc1ccc(Cl)cc1C(=O)c1ccccc1,16,-24
COc1cc2c(cc1OC)C(c1c(O)n(CCc3ccccc3)c(=S)[nH]c1=O)NCC2 (stereo unspecified),8,-20
CC1CN=C(Nc2ccc(F)cc2)S1 (stereo unspecified),25,0
COC(=O)COc1ccc(/C=C2\C(=O)NC(=S)N(c3ccc(C)cc3)C2=O)cc1OC,2,-2
CCCCn1c(O)c(C(CC)=NC(C)c2ccccc2)c(=O)[nH]c1=O (stereo unspecified),10,-32
O=C1Nc2ccccc2C(c2ccccc2)=NC1O (stereo unspecified),-9,-10
COc1ccc(-n2c(SCCN(C)C)nc3ccccc3c2=O)cc1,0,-13
CSc1ccc(CN2CCN(C(=O)COc3ccc(C)cc3)CC2)cc1,27,-27
COc1ccc(NC2=NCCCS2)cc1OC,7,-10
S=C(NC1CCCCC1)N1CCC(c2cnc[nH]2)CC1,9,-8
c1ccc2c(CNC3CCCCC3)c[nH]c2c1,4,-13
CC(C)OC1CCCC(O)C1CC(=O)O (stereo unspecified),14,4
CC1CN(O)C2CCc3c(no[n+]3[O-])C12O (stereo unspecified),17,-2
CCC(c1ccc(C)cc1)N1C(=O)C2C3CCC(O3)C2C1=O (stereo unspecified),8,2
Cc1c(C(c2ccc(F)cc2)c2c(O)c3ccccc3oc2=O)c(=O)n(-c2ccccc2)n1C (stereo unspecified),26,-4
CC(=O)OC1C2CCC1C(N1CCCCC1)CC2 (stereo unspecified),8,-12
CCC(C)NS(=O)(=O)c1ccc(OCC(=O)N2CCN(CC)CC2)cc1 (stereo unspecified),10,-9
CN1C(=O)NC(=O)/C(=C/c2ccc(C(=O)O)cc2)C1=O,9,-20
Cc1ccsc1C(=O)C1CCCN(Cc2cccc(OCCO)c2)C1 (stereo unspecified),3,-27
O=C(O)c1sc2cc(Cl)ccc2c1Cl,-4,-1
CCn1cc(C(=O)N2CCC3(CC2)OCCO3)c(=O)c2cc(S(=O)(=O)N3CCCC3)ccc21,7,4
Cc1ccc(-n2c(O)c(C=NCC3CCCO3)c(=O)[nH]c2=O)c(C)c1 (stereo unspecified),8,-3
O=C1N(c2cccc(Cl)c2)C(c2cccnc2)N2CCCN12 (stereo unspecified),12,-21
Cc1c(N)c(C)c([N+](=O)[O-])c(C)c1[N+](=O)[O-],22,2
O=C1NC(=O)N(c2ccc(Cl)cc2)C(=O)/C1=C/c1coc2ccc(O)cc2c1=O,7,-14
CCC(COC(=O)c1cc(OC)c(OC)c(OC)c1)(c1ccccc1)N(C)C (stereo unspecified),12&16&28,-51&-27&-15
Cc1cc(C=O)c(C)n1CC1CCCO1 (stereo unspecified),3,0
C=CCn1c(O)c(C(CC)=NC2CC2)c(=O)[nH]c1=O,4,-17
O=Cc1cn(Cc2ccccc2[N+](=O)[O-])c2ccccc12,18,-7

# A stretch taken from the entries so far, for reference:
SMILES,OX1R antag-1,OX1R antag-2
CC1CN=C(Nc2ccc(F)cc2)S1 (stereo unspecified),25,0
COC(=O)COc1ccc(/C=C2\C(=O)NC(=S)N(c3ccc(C)cc3)C2=O)cc1OC,2,-2
CCCCn1c(O)c(C(CC)=NC(C)c2ccccc2)c(=O)[nH]c1=O (stereo unspecified),10,-32
O=C1Nc2ccccc2C(c2ccccc2)=NC1O (stereo unspecified),-9,-10
COc1ccc(-n2c(SCCN(C)C)nc3ccccc3c2=O)cc1,0,-13
CSc1ccc(CN2CCN(C(=O)COc3ccc(C)cc3)CC2)cc1,27,-27
COc1ccc(NC2=NCCCS2)cc1OC,7,-10
S=C(NC1CCCCC1)N1CCC(c2cnc[nH]2)CC1,9,-8
c1ccc2c(CNC3CCCCC3)c[nH]c2c1,4,-13
CC(C)OC1CCCC(O)C1CC(=O)O (stereo unspecified),14,4
CC1CN(O)C2CCc3c(no[n+]3[O-])C12O (stereo unspecified),17,-2
CCC(c1ccc(C)cc1)N1C(=O)C2C3CCC(O3)C2C1=O (stereo unspecified),8,2
Cc1c(C(c2ccc(F)cc2)c2c(O)c3ccccc3oc2=O)c(=O)n(-c2ccccc2)n1C (stereo unspecified),26,-4
CC(=O)OC1C2CCC1C(N1CCCCC1)CC2 (stereo unspecified),8,-12
CCC(C)NS(=O)(=O)c1ccc(OCC(=O)N2CCN(CC)CC2)cc1 (stereo unspecified),10,-9
CN1C(=O)NC(=O)/C(=C/c2ccc(C(=O)O)cc2)C1=O,9,-20
Cc1ccsc1C(=O)C1CCCN(Cc2cccc(OCCO)c2)C1 (stereo unspecified),3,-27
O=C(O)c1sc2cc(Cl)ccc2c1Cl,-4,-1
CCn1cc(C(=O)N2CCC3(CC2)OCCO3)c(=O)c2cc(S(=O)(=O)N3CCCC3)ccc21,7,4
Cc1ccc(-n2c(O)c(C=NCC3CCCO3)c(=O)[nH]c2=O)c(C)c1 (stereo unspecified),8,-3
O=C1N(c2cccc(Cl)c2)C(c2cccnc2)N2CCCN12 (stereo unspecified),12,-21
Cc1c(N)c(C)c([N+](=O)[O-])c(C)c1[N+](=O)[O-],22,2
O=C1NC(=O)N(c2ccc(Cl)cc2)C(=O)/C1=C/c1coc2ccc(O)cc2c1=O,7,-14
CCC(COC(=O)c1cc(OC)c(OC)c(OC)c1)(c1ccccc1)N(C)C (stereo unspecified),12&16&28,-51&-27&-15
Cc1cc(C=O)c(C)n1CC1CCCO1 (stereo unspecified),3,0
C=CCn1c(O)c(C(CC)=NC2CC2)c(=O)[nH]c1=O,4,-17
O=Cc1cn(Cc2ccccc2[N+](=O)[O-])c2ccccc12,18,-7
